Bioassay records (PubChem BioAssay)
Ins promoter up: insulin promoter activators in MIN6 cells, imaging, high-content screening, mouse beta cells. MIN6 insulin promoter-GFP reporter; hits give high values. z-score at 5 µM. 190,000 compounds, 0.3% hits. AID 1625, 2009;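 active means z-score above 3 at 5 µM with at least 500 cells counted in the well; inconclusive means wells under 500 cells, flagged as cytotoxic or low count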
MT stabilize HCS: microtubule stabilizers in HeLa cells, primary screen, imaging, high-content imaging. HeLa tubulin immunostaining HCS, 24 h; share of cells brighter than vehicle mean+2SD. % tubulin-high responders, % at 10 µM. 200,000 compounds, 0.83% hits;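 active means plate Z-score above 3 for both tubulin-high and condensed-nucleus cell shares, with cell loss under 80%, at 10 µM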;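 further: anti alpha tubulin signal scored within the nucleus-defined area of each cell; some results filed as inactive read as strong as hits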
TNAP activators: human TNAP enzyme activators, primary screen, biochemical, luminescent, no phosphate acceptor, uHTS (AID 1001); purified TNAP, luminescent activation assay, no phosphate acceptor; higher activation fold means a stronger effect; activation fold at 20 µM, or EC50 in µM where a hit was titrated; 200,000 compounds, 0.03% hits; in the data active means activation fold from about 3, or a potency from the dose series; inactive means the rest, 99 in 100 with activation fold below about 1.6; further: many of its hits are not listed in these tables
Autophagy mod: autophagy modulators in MEF cells, primary screen, imaging, high-content, MEF GFP-LC3 | MEF GFP-LC3 puncta imaging; test concentration mostly 10 µM | calls only at 10 µM (by protocol) | 190,000 compounds, 0.98% hits | AID 463193, 2010;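 active means percentage of spot-positive cells more than 3 SD above its plate mean, without a fluorescence outlier flag or 80% toxicity; inconclusive means no clear call, values can overlap the other calls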;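 further: spot-positive cell cutoff set from DMSO-treated cells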
T cell HTS: modulators of CD8 T cell-vesicle binding, primary screen, mouse 2C CD8+ T cells, flow cytometry. 2C CD8+ T cell-vesicle binding; hits give low values. calls only at 7 µM. 330,000 compounds, 0.068% hits. AID 2052, 2009;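 active means response, share of CD8 T cells binding vesicles, and their 90th percentile fluorescence all below set limits, cut at about 80% in these data, passing the limit was not always enough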
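incubation = binding step 1.5 h, 37 °C, antibody labelling 20 min, ice | test system = 2C mouse CD8+ T cells | read-out basis = percent CD8+ FL2 mean versus row control | controls = Peptide-free naked vesicles (low) and QL9 vesicles with 0.7% DMSO vehicle (high) | detection = flow cytometry of vesicle-bound cells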
Lipid droplet: inhibitors of hepatocyte lipid droplet formation, primary screen, imaging, high-throughput imaging, BODIPY stain | AML12 mouse hepatocytes, oleate lipid droplets | inhibition, % at 6.5 µM | 240,000 compounds, 0.4% hits;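 active means lipid droplet intensity inhibited by at least 50%, with more than 500 cells counted; inconclusive means wells with under 300 cells, treated as cytotoxic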
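Assay system: AML12 mouse liver cells | Compound dosing: One dose, 6.5 µM compound | Read-out basis: Droplet intensity reduction, % inhibition | Measured by: Fluorescence imaging, 20x objective, two fields per well | Schedule: Overnight treatment with compound plus oleate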
Ins promoter up cell count: recorded beside Ins promoter up, whose call it bears; cell count; measured here: cytotoxicity, nuclei count;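 total cells summed across four imaged fields per well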
Lipid droplet cells 6.5 µM: further read-out of Lipid droplet, marked with its call; cell count; measured here: cell count, cytotoxicity flag;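 cells counted across two imaged fields per well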
T cell HTS vesicle-bound %: further read-out of T cell HTS, marked with its call; double positive events, %; measured here: CD8+ vesicle-bound cell fraction;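 binding gate set so that unloaded-vesicle control wells show 10% double positive cells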
MT stabilize HCS Hoechst-high %: second read-out of MT stabilize HCS, no call of its own (marks repeat the call); % Hoechst-high responders; measured here: nuclear condensation Hoechst responders;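 share of cells brighter than vehicle mean plus two SD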
MT stabilize HCS cytotoxicity %: recorded beside MT stabilize HCS, whose call it bears; toxicity, %; measured here: cytotoxicity by cell density;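 0% = mean cell density of plate MIN control wells and 100% = no cells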
Autophagy mod cell loss 18 h: second read-out of Autophagy mod, no call of its own (marks repeat the call); toxicity, %; measured here: cell loss, nuclei count;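 cell loss after 18 h compound exposure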
* = called active by the depositor; i = inactive; u = inconclusive; x = no result given; + = active, no number. This is a subset (hit frequency here may not be typical).

SMILES | Ins promoter up | Ins promoter up cell count | MT stabilize HCS | MT stabilize HCS Hoechst-high % | MT stabilize HCS cytotoxicity % | TNAP activators | Autophagy mod | Autophagy mod cell loss 18 h | T cell HTS | T cell HTS vesicle-bound % | Lipid droplet | others
CCOC(=O)Cn1nc(C)c2c1CCCC2=O | 0.07 | 1668 | 2.1 | 2.6 | 3.5 | 1.1 | i | -9 | i | 45 | x
O=C(Cn1c(O)c(/C=C2\C=Nc3ccccc32)sc1=O)Nc1ccc2c(c1)OCO2 | 0.32 | 1512 | 2.3 | 2.2 | 8.7 | 1 | + | -13* | i | 66 | x
Cc1cc([N+](=O)[O-])nn1CC(=O)NNC(=S)Nc1ccc([N+](=O)[O-])cc1 | -0.14 | 1633 | 2.8 | 2.1 | 10 | 1.5 | i | -15 | i | 23 | x
CCOc1ccc(/C(O)=C2/C(=O)C(=O)N(CC3CCCO3)C2c2ccc(C)o2)cc1 (stereo not given) | 0.36 | 1644 | 1.6 | 2.2 | 7.8 | 1 | i | 10 | i | 45 | x
CCOc1ccc(NC(=S)NC(=O)/C=C/c2ccc(C)cc2)c([N+](=O)[O-])c1 | 0.11 | 1352 | 2.4 | 1.1 | 5.5 | 1 | i | 27 | i | 26 | x
CCOC(=O)Cc1csc(NS(=O)(=O)c2ccccc2)n1 | -0.22 | 1489 | 2.6 | 2.5 | 6.7 | 1.1 | i | 36 | i | 38 | x
O=c1[nH][nH]c(C(F)(F)F)c1C=Nc1cccc(Cl)c1 | -1.1 | 1392 | 2.7 | 1.7 | 7.2 | 1 | i | 12 | i | 14 | x
CCn1c(SCC(=O)OC)nc2sc3c(c2c1=O)CCC3 | 0.32 | 1638 | 4.0 | 2.8 | 6.9 | 1 | i | -10 | i | 20 | x
CN(C)c1ccc(/C=N/N2C(=S)SC(C)(C)C2N(O)C(=O)Nc2ccc([N+](=O)[O-])cc2)cc1 (stereo not given) | -0.8 | 1625 | 3.6 | 1.7 | 10 | 1 | i | 5 | i | 43 | x
CCOC(=O)CSc1nc2ccccc2c(=O)n1CC1CCC(C(=O)NCc2ccco2)CC1 (stereo not given) | -0.52 | 1493 | 1.0 | 1.8 | 6.0 | 1.1 | i | 5 | i | 10 | x
CCOC(=O)c1c(NC(=O)c2c(Br)cnn2C)c(C#N)nn1-c1ccccc1 | 0.09 | 1226 | 1.4 | 1.4 | 3.7 | 1.1 | i | -3 | i | 38 | x
CC(C)C(NC(=O)c1ccc(C(C)(C)C)cc1)C(=O)O (stereo not given) | 0.77 | 1288 | 2.8 | 2.2 | 5.8 | 1.1 | i | -4 | i | 12 | x
CCc1ccc(N(C(=O)c2snc(C(N)=O)c2N)C(C(=O)NCCC(C)C)c2c[nH]c3ccccc23)cc1 (stereo not given) | -0.77 | 1652 | 3.3 | 1.1 | 0.5 | 1.1 | i | 0 | i | 55 | x
CC(C)Sc1nc(O)c(Cc2ccccc2)c(=O)[nH]1 | 0.46 | 823 | 1.0 | 1.1 | 9.9 | 1.1 | i | 0 | i | 16 | 5 | Lipid droplet cells 6.5 µM=747
COc1ccc(C2NC(=O)c3sc4nc(C)c(C(C)=O)c(-c5ccc(Cl)cc5)c4c3N2)cc1 (stereo not given) | -0.81 | 1625 | 1.9 | 1.9 | 6.8 | 1.1 | i | -2 | i | 16 | x
O=C1c2ccccc2NC(c2ccncc2)N1c1ccccn1 (stereo not given) | -0.13 | 1420 | 2.1 | 1.5 | 6.2 | 1.1 | i | 8 | i | 19 | x
FC(F)(F)c1cc(-c2ccccc2)nc(N2CCOCC2)n1 | -0.61 | 1582 | 2.2 | 2.3 | 5.6 | 1 | i | 0 | i | 46 | x
Cc1sc2ncnc(SCC(=O)N3CCN(C(=O)c4ccco4)CC3)c2c1C | -0.61 | 1178 | 2.8 | 2.1 | 2.5 | 1.2 | i | 14 | i | 12 | x
Cc1cccc(NC(=O)CSc2ncnc3nc[nH]c23)c1C | -0.41 | 1488 | 2.6 | 2.0 | 8.0 | 1.1 | i | 8 | i | 16 | x
CCC(=O)N1CCc2cc(S(=O)(=O)NC(C(=O)NCc3ccc(F)cc3)C(C)C)ccc21 (stereo not given) | 0.43 | 1607 | 3.7 | 2.7 | 11 | 1.1 | i | 44 | i | 32 | x
CC(=O)NC1CC2CCCC(C1)N2C(=O)Nc1ccccc1 (stereo not given) | -0.7 | 1629 | 1.4 | 1.2 | 3.9 | 1.1 | i | 0 | i | 32 | x
CC(=O)n1cc(/C=N/NC(=O)c2sc(C)nc2C)c2ccccc21 | -0.88 | 1504 | 11 | 4.1 | 13 | 1.1 | i | -1 | i | 8 | x
O=C(O)Cc1ccc(NC(=O)C2CCCCC2C(=O)O)cc1 (stereo not given) | -0.41 | 1604 | 4.8 | 3.3 | 4.1 | 1.1 | i | 7 | i | 28 | x
CC(=O)Nc1ccc(S(=O)(=O)NCCN2CCOCC2)cc1 | 0.63 | 1296 | 5.8 | 1.9 | 6.1 | 1.2 | i | -5 | i | 45 | x
O=C(NCc1ccc2c(c1)OCO2)c1cc(-c2ccc(Cl)cc2Cl)on1 | 0.7 | 1495 | 2.5 | 1.9 | 0.3 | 1 | i | 0 | i | 50 | x
Further entries:
SMILES | Ins promoter up | Ins promoter up cell count | MT stabilize HCS | MT stabilize HCS Hoechst-high % | MT stabilize HCS cytotoxicity % | TNAP activators | Autophagy mod | Autophagy mod cell loss 18 h | T cell HTS | T cell HTS vesicle-bound % | Lipid droplet | others
Cc1cc2n(n1)SC(Nc1ccccc1)N2 (stereo not given) | -0.9 | 1507 | 2.0 | 2.4 | 15 | 1.1 | i | -4 | i | 53 | x
O=C(COc1ccc(F)cc1)Nc1nnc(-c2ccncc2)s1 | 0.35 | 1509 | 2.4 | 1.8 | 4.1 | 1 | i | -3 | i | 57 | x
CCCOc1ccc(C(=O)Nc2ccc(C)cc2[N+](=O)[O-])cc1 | 0.49 | 1463 | 1.3 | 2.0 | 9.8 | 1 | i | 5 | i | 13 | x
CN(CCC#N)CC(=O)Nc1ccc(NC(=O)CN(C)CCC#N)cc1 | -0.18 | 1163 | 7.0 | 5.4 | 5.9 | 1.1 | i | -3 | i | 20 | x
CCC(CC)C(=O)N(c1ccc(F)cc1)C1C=CS(=O)(=O)C1 (stereo not given) | 0.01 | 2018 | 3.1 | 2.3 | 4.0 | 1.1 | i | 17 | i | 54 | -19 | Lipid droplet cells 6.5 µM=628
CC(/C=N/NC(=O)c1n[nH]c2c1CCC2)=C\c1ccccc1 | -0.97 | 637 | 11 | 50 | 40 | 1 | + | 56* | i | 25 | u
Cc1cccc(NC(=O)CSc2n[nH]c(-c3ccncc3)n2)c1 | -0.42 | 1546 | 4.6 | 2.5 | 6.8 | 0.8 | i | 4 | i | 36 | x
CC(=O)Nc1cccc(NC(=O)c2cc(-c3cccnc3)nc3ccc(Br)cc23)c1 | -0.23 | 1079 | 2.1 | 1.8 | 6.2 | 0.9 | i | -8 | i | 45 | x
Cc1oc(-c2cccc(Cl)c2)[n+]([O-])c1C | 0.26 | 1682 | 1.8 | 1.2 | 5.2 | 1.1 | i | 1 | i | 36 | x
COc1ccc(C(CC(=O)Nc2ccc(F)cc2)c2ccccc2)cc1 (stereo not given) | -0.41 | 1531 | 1.3 | 0.7 | 3.8 | 1.2 | i | 8 | i | 47 | x
CSc1cccc(NC(=O)CN(c2ccccc2)S(=O)(=O)N(C)C)c1 | -0.38 | 1588 | 3.6 | 1.8 | 2.7 | 1.1 | i | -2 | i | 48 | x
CCOc1ccc(-n2c(Cc3ccccc3)nnc2SCc2c(C)noc2C)cc1 | -0.03 | 1714 | 5.0 | 2.6 | 6.3 | 1.1 | i | 11 | i | 48 | x
CC(Sc1ncnc2ccccc12)C(=O)Nc1ccc2c(c1)OCO2 (stereo not given) | -0.16 | 1498 | 2.9 | 2.2 | 8.5 | 1 | i | -21 | i | 48 | x
CCOc1cc(/C=C(/C#N)c2nc3ccccc3[nH]2)ccc1OCc1ccc(C(=O)O)o1 | 0.01 | 1312 | 2.4 | 1.4 | 5.0 | 1.1 | i | 4 | i | 21 | x
CCOc1ccc(N=C2NC(=O)S/C2=C\c2ccc(OC)cc2)cc1 | x | x | 1.3 | 1.4 | 3.9 | 1.1 | + | -3.6* | i | 35 | -9 | Lipid droplet cells 6.5 µM=741
O=C(CNC(=O)/C(=C/c1ccccc1)NC(=O)c1ccc(Br)cc1)OCc1ccccc1 | 0.92 | 1417 | 5.8 | 1.3 | 5.1 | 1.1 | i | 3 | i | 59 | 14 | Lipid droplet cells 6.5 µM=743
CC1Cc2cc(/C(O)=C3/C(=O)C(=O)N(CCN4CCOCC4)C3c3cccc(Cl)c3)ccc2O1 (stereo not given) | 2.6 | 1465 | 5.3 | 3.1 | 5.2 | 1.1 | i | -5 | i | 41 | x
Cc1ccc(C(=O)C2(C)C3c4cc(Br)ccc4OC(=O)C32C(=O)c2ccco2)cc1 (stereo not given) | -0.49 | 1594 | 2.2 | 1.1 | 1.5 | 1.1 | i | 4 | i | 26 | x
CC(C)CN(C(=O)COC(=O)c1cc2ccccc2oc1=O)C1CCS(=O)(=O)C1 (stereo not given) | 0.13 | 1144 | 3.2 | 2.7 | 5.8 | 1.1 | i | 5 | x | x | x
CCOc1ccc(NC(=O)N2CCC(C(=O)c3ccc(F)cc3)CC2)cc1 | 0.4 | 1381 | 3.1 | 2.4 | 7.0 | 1 | i | 2 | i | 36 | x
COC(=O)c1ccc(CNC(=O)CSc2nc3sc(C)c(C)c3c(=O)n2C)o1 | -0.39 | 1226 | 3.8 | 1.6 | 6.8 | 1.2 | i | -7 | i | 15 | -9 | Lipid droplet cells 6.5 µM=749
NC(=O)C1(NC(=O)[C@@H]2CC3(CC(c4cccc(NC(=O)[C@@H]5CCC(=O)N5)c4)=NO3)CN2C(=O)c2cnccn2)CC1 (stereo not given in full) | 0.96 | 1455 | 2.9 | 2.1 | 8.7 | 1.1 | i | -18 | i | 35 | x

4 entries drawn at random from those above:
SMILES | Ins promoter up | Ins promoter up cell count | MT stabilize HCS | MT stabilize HCS Hoechst-high % | MT stabilize HCS cytotoxicity % | TNAP activators | Autophagy mod | Autophagy mod cell loss 18 h | T cell HTS | T cell HTS vesicle-bound % | Lipid droplet | others
NC(=O)C1(NC(=O)[C@@H]2CC3(CC(c4cccc(NC(=O)[C@@H]5CCC(=O)N5)c4)=NO3)CN2C(=O)c2cnccn2)CC1 (stereo not given in full) | 0.96 | 1455 | 2.9 | 2.1 | 8.7 | 1.1 | i | -18 | i | 35 | x
O=C(CNC(=O)/C(=C/c1ccccc1)NC(=O)c1ccc(Br)cc1)OCc1ccccc1 | 0.92 | 1417 | 5.8 | 1.3 | 5.1 | 1.1 | i | 3 | i | 59 | 14 | Lipid droplet cells 6.5 µM=743
CCOC(=O)Cc1csc(NS(=O)(=O)c2ccccc2)n1 | -0.22 | 1489 | 2.6 | 2.5 | 6.7 | 1.1 | i | 36 | i | 38 | x
COc1ccc(C2NC(=O)c3sc4nc(C)c(C(C)=O)c(-c5ccc(Cl)cc5)c4c3N2)cc1 (stereo not given) | -0.81 | 1625 | 1.9 | 1.9 | 6.8 | 1.1 | i | -2 | i | 16 | x
